# miR-21 FLuc = raises the signal of a miR-21 reporter. HeLa miR-21 FLuc reporter, luciferase, 48 h. Potency, µM (titrated, usually from 38.3 µM), for inactives: at the top dose reporter change, positive = more light. 340,000 tested, under 10 active; active = well fitted rising curve with a large enough effect; inconclusive = small, poorly fitted or top-dose-only effect; inactive = no such curve, though single readings can be large or run the other way;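 note: % of control where 0% means no effect; miR-21 action dims this reporter so a rising signal means less miR-21 action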
#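 HeLa cells stably expressing CMV-driven firefly luciferase with a downstream miR-21 binding sequence, endogenously expressing miR-21, were treated with titrations (up to about 40uM final) for 48 hours at 37 degree Celsius. Luciferase luminescence was read after lysis.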
# Rango complex inh = Rango-importin beta binding inhibition; 340,000 compounds, 0.031% hits; Rango CFP/YFP FRET sensor + importin beta, 45 min; Potency, µM (titrated, usually from 92.2 µM), without a hit: at the highest dose inhibition of complex formation; AID 540263; active = rising FRET ratio curve, often small or poorly fitted; inconclusive = mostly compound fluorescence or quenching in the first reads; inactive = flat curves in all reads;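 note: potency is the fitted concentration of half-maximal effect; 0% = DMSO wells and 100% = buffer wells lacking importin beta; nearly all actives have a fitted effect of over 15% in size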
# Target sequence (Q14974 whole entry, looked up): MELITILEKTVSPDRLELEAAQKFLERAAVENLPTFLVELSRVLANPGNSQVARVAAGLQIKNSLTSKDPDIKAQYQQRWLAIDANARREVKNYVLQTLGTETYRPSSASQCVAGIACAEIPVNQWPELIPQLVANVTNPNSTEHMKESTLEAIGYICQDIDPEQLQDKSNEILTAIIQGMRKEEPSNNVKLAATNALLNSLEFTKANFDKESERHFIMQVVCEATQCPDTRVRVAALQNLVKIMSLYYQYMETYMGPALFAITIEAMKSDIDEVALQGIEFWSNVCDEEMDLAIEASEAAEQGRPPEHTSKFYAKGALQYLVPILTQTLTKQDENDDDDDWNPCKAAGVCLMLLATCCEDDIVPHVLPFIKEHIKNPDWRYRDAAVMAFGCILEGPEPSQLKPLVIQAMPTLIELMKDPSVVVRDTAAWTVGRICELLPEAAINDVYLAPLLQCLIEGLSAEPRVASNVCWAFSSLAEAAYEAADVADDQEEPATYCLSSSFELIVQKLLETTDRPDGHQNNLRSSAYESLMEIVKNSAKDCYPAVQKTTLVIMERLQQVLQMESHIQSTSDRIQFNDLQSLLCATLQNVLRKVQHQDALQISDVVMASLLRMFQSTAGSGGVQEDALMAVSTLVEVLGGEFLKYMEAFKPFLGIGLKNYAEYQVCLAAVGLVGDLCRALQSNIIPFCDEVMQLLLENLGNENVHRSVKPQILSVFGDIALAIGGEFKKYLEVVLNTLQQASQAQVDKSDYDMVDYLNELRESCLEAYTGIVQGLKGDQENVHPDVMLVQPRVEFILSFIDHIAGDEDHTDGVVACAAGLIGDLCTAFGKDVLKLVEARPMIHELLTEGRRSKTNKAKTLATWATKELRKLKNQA
#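 FRET biosensor Rango (snurportin 1 IBB between N-terminal EYFP and C-terminal Cerulean), 50 nM in PBS/1 mM DTT/0.02% Tween-20/0.1% BSA, preincubated 5 min RT with compound; 0.125 microM importin beta added, 45 min RT, CFP/YFP FRET ratio read.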
# Rango dissoc inh = prevents RanGTP from dissociating the Rango-importin beta complex; 340,000 compounds, 0.071% hits; O95149+P62826; Biochemical FRET Rango-importin beta, RanGTP-induced dissociation; Potency, µM (titrated, usually from 46.1 µM), without a hit: at the top dose activity change, negative = inhibition; active means falling FRET ratio curve, often poorly fitted, with flat reads before Ran was added; inconclusive means other falling curves, or compound fluorescence or quenching; inactive means flat or rising ratio curve;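 note: potency is the fitted concentration of half-maximal effect; % of control where 0% means no effect; nearly all actives have a fitted effect of over 45% in size; -100% = wells without RanGTP and RCC1; the record marks most hits as doubtful in a second field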
#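 Quantitative HTS using a FRET biosensor: 0.1 uM Rango, 0.25 uM importin beta, 0.6 uM Ran, 2 mM GTP, 0.2 uM RCC1 final, PBS with DTT, Tween-20 and BSA. Post-read taken 45 min after Ran addition.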
# GLA inh pH 4.5 = alpha-galactosidase A (human) inhibition, pH 4.5. P06280. purified enzyme, 4-MU-alpha-Gal fluorescence, pH 4.5. activity change, negative = inhibition, % at 105 µM. 230,000 tested, under 10 active. AID 1467; inconclusive = small, poorly fitted or top-dose-only inhibition, or a rising curve; inactive = flat fitted curve, though single readings scatter; no compound was filed as active;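 note: 0% = full activity with enzyme and -100% = basal without enzyme; dose as in the result columns while the protocol names 77 µM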
# Numbers without * were called inactive; ? = inconclusive; · = not tested or not shown; & = joins results of further samples; [ ] = another dose, or the depositor's remark.
SMILES,miR-21 FLuc,Rango complex inh,Rango dissoc inh,GLA inh pH 4.5
COc1ccc(C(=O)NCCS(=O)(=O)NCc2ccco2)cc1,·,-0.1%,-3.5%,·
COc1ccc(OC2CCN(S(=O)(=O)c3ccc(F)cc3)CC2)cc1,5.9%,1.3%,16.1%,·
CC(C)C(NC(=O)c1ccccc1)C(=O)OCC(=O)N1CCCCC1 (stereo unspecified),·,-0.3%,-1.4%,·
CCN(CC)Cc1c(CC(C)C)oc(C)c1C(=O)O,0.3%,2.5%,0.1%,-3.7
O=[N+]([O-])c1ccc(S(=O)(=O)Nc2nc(-c3ccccc3)cs2)cc1,-17.1%,-0.4%,23.7%,·
c1ccc2nc3c(cc2c1)CCCCC3,-1.4%,-0.5%,-22.4%,-3.9
Cc1cccc(N2CCN(C(=O)c3ccc4ccccc4c3)CC2C)c1 (stereo unspecified),·,-0.5%,-25.9%,·
Cc1nc2ccccc2nc1SCC(=O)N1CCC(C)CC1,-4.3%,-0.5%,3.6%,1.4
COc1ccc2nc(-c3ccccn3)[nH]c2c1,-11.2%,0.4%,22.9%,·
Cc1cc(NC(=O)NC(=O)c2ccccc2)no1,-38.4%,13.8%,9.1%,·
COc1ccc(Cl)cc1NC(=O)Cc1c(F)cccc1Cl,1.5%,0.0%,2.0%,-13.4
Fc1ccc(-c2cc(-c3ccccc3)nc(-n3cccn3)n2)cc1,3.5%,5.6%,-13.8%,·
C[C@H](NS(=O)(=O)c1ccc(Cl)cc1)C(=O)OCC(=O)NC(=O)Nc1ccc2c(c1)OCCO2,-60.7%,2.2%,-1.1%,0.3
Cc1ccccc1NC(=O)NC1CCCCCCC1,-15.4%,-1.1%,-12.2%,·
Cc1cccc(-n2c(SCC(=O)NCc3ccc4c(c3)OCO4)nc3ccccc3c2=O)c1,-4.0%,-0.9%,36.9%,2.2
CN1/C(=C\C=N\NC(=O)c2ccccc2Br)C(C)(C)c2ccccc21,14.7%,-5.4%,19.3%,-21.0
CCC(=O)c1ccc(N2CCCCC2)c(F)c1,1.9%,2.2%,-13.5%,-2.1
CC1CN(C)C(C)c2c1oc1ccc(N)cc21 (stereo unspecified),1.6%,4.9%,35.7%,2.4
COC(=O)c1ccc(COc2ccc(/C=N/NC(N)=S)cc2)o1,?,-1.2%,11.3%,-7.2
OC1CCCN(CC(O)COc2ccc(-c3ccccc3)cc2)C1 (stereo unspecified),-34.0%,-0.2%,-3.5%,·
CC(c1ccccc1)c1nnc(NC(=O)Nc2ccccc2F)s1 (stereo unspecified),-39.8%,-3.9%,5.1%,·
COc1ccccc1CNC(=O)C/C(C)=N/NC(=O)COc1ccc(C)cc1Br,0.2%,0.1%,-13.3%,9.8
CCCCC(CC)C(=O)NCC(C)NC(=O)C(CC)CCCC (stereo unspecified),-0.6%,-0.3%,-5.3%,3.1
Cc1cc(N/N=C/c2ccccc2F)nc(NCc2ccccc2)n1,7.3%,0.4%,-4.0%,-7.3
Cc1nc(-c2ccc(S(=O)(=O)Oc3ccccc3Cl)s2)cs1,-13.5%,-1.2%,12.2%,-23.8
O=C(O)c1ccccc1N=N/C(=N/Nc1cc(S(=O)(=O)O)ccc1O)c1ccccc1,·,0.9%,2.8%,·
CCN(CC(=O)NCc1ccccn1)S(=O)(=O)c1ccc(Cl)cc1,-4.8%,-3.0%,-17.2%,2.9
COc1ccc(NC(=O)CN(C)C(=O)C(C)Sc2ccccc2)cc1 (stereo unspecified),-3.1%,-0.1%,-15.0%,·
COc1ccc(OCc2nnc(SCc3ccc(C(=O)O)cc3)o2)cc1,-12.2%,0.9%,-6.0%,2.0
COC(=O)c1cc(S(=O)(=O)NCC2CCN(Cc3ccc(F)cc3)CC2)cn1C,-4.0%&-1.8%,2.0%,2.3%,·
O=C(Cc1ccsc1)N1CCN(S(=O)(=O)c2cccc(F)c2)CC1,·,1.5%,8.3%,·
CC(C)(C)C1CCC(=NNC(=O)CN(c2ccccc2)S(=O)(=O)c2ccccc2[N+](=O)[O-])CC1 (stereo unspecified),-1.7%,-2.5%,-13.4%,-3.0
Cc1cnc(NC(=O)CSc2c(Cl)cccc2Cl)s1,13.3%,6.0%,16.8%,2.2
COc1cc(OC)cc(C(=O)Nc2ccccc2NC(C)=O)c1,-5.3%,-1.8%,21.3%,-2.5
CC1(C)CC(=O)C2=C(C1)NC(=O)CC2c1cc2c(cc1Br)OCO2 (stereo unspecified),-10.5%,-2.6%,-16.2%,-2.8
COc1ccccc1/C=C/c1nc2ccc(OC(C)=O)cc2c(=O)o1,-0.3%,0.0%,-19.5%,·
COC(=O)c1sccc1NC(=S)N(C)C1CCCCC1,-6.8%,-2.3%,8.9%,3.2[21.1 µM]
O=C(CSc1ccc2nnc(-c3cccnc3)n2n1)NCC1CCCO1 (stereo unspecified),-1.5%,-0.5%,-1.0%,-3.5
COC(=O)c1ccc(COc2ccc(C3C4=C(CCCC4=O)Nc4onc(C)c43)cc2)cc1 (stereo unspecified),-16.8%,-8.1%,-0.1%,-5.5
O=C(CSc1nnc(CNC(=O)c2ccccc2F)o1)NC1CCCCC1,1.4%,?,-8.6%,·

# The final 6 compounds of the section above lead into the next:
SMILES,miR-21 FLuc,Rango complex inh,Rango dissoc inh,GLA inh pH 4.5
CC1(C)CC(=O)C2=C(C1)NC(=O)CC2c1cc2c(cc1Br)OCO2 (stereo unspecified),-10.5%,-2.6%,-16.2%,-2.8
COc1ccccc1/C=C/c1nc2ccc(OC(C)=O)cc2c(=O)o1,-0.3%,0.0%,-19.5%,·
COC(=O)c1sccc1NC(=S)N(C)C1CCCCC1,-6.8%,-2.3%,8.9%,3.2[21.1 µM]
O=C(CSc1ccc2nnc(-c3cccnc3)n2n1)NCC1CCCO1 (stereo unspecified),-1.5%,-0.5%,-1.0%,-3.5
COC(=O)c1ccc(COc2ccc(C3C4=C(CCCC4=O)Nc4onc(C)c43)cc2)cc1 (stereo unspecified),-16.8%,-8.1%,-0.1%,-5.5
O=C(CSc1nnc(CNC(=O)c2ccccc2F)o1)NC1CCCCC1,1.4%,?,-8.6%,·
CCCCNC(=S)N(C)/N=C/c1ccccc1C(=O)O,-2.2%,2.1%,1.6%,-13.1
Cc1ccc(NC(=O)CN(C)C(=O)c2cccc(S(=O)(=O)NCc3ccccc3)c2)cc1,·,-5.7%,-1.0%,·
CC(C)C[C@H]1CNC(=S)N1CC1CCN(CC2CCCC2)CC1,·,2.4%,34.2%,·
C=CCc1ccc(OC)c(OC)c1,0.7%,0.8%,20.6%,·
CCc1ccc(-c2nc(SCC(=O)c3c(N)n(C)c(=O)n(C)c3=O)n[nH]2)cc1,·,4.8%,1.0%,·
CC(C)(C)OC(=O)NOCC(=O)N(Cc1ccccc1)CC(O)COc1ccccc1 (stereo unspecified),·,-2.7%,23.9%,·
COc1cccc(CN2CCN(C3CCN(c4ccccc4C)CC3)CC2CCO)c1 (stereo unspecified),6.6%,-2.4%,10.2%,-12.0
O=C(NCC1CCCO1)C1CCCN(c2ncccn2)C1 (stereo unspecified),-5.1%,0.3%,-3.2%,1.1
O=C(COc1ccc(S(=O)(=O)N2CCOCC2)cc1)NC1CC1,12.0%,0.4%,0.3%,·
CCOc1ccc(S(=O)(=O)N(CC(=O)NN=C2CCN(C)CC2)c2ccc(C)cc2)cc1,7.5%,4.4%,5.1%,·
CC1(C)CC(=O)C(C(=S)Nc2ccccc2)=C(NC2CC(C)(C)NC(C)(C)C2)C1,-2.6%,3.9%,-11.6%,-20.8
Cc1[nH]nc(Nc2ccc(C(C)C)cc2)c1[N+](=O)[O-],-55.1%,1.3%,-0.1%,-14.2
COc1cc([N+](=O)[O-])ccc1NC(=O)CC1SC(=Nc2ccc(F)cc2)N(CCC2=CCCCC2)C1=O (stereo unspecified),-16.0%,5.2%,-1.4%,-14.3
O=C(CCN1C(=O)COc2ccccc21)N1CCCCC1,-5.6%,-5.3%,13.1%,-0.9
COc1ccc(NS(=O)(=O)c2ccc(C)c(NC(=O)CN3C(=O)NC4(CCCC4)C3=O)c2)cc1,·,-6.7%,12.6%,·
CC(C)(C)c1ccc(/C=N/Nc2ccc(C(=O)O)cc2)cc1,-6.2%,-1.4%,4.1%,-7.6
CC1CCCCC1NC(=O)CSc1nnc(N)s1 (stereo unspecified),0.9%,-0.6%,18.2%,-0.1
COc1ccc(C2c3cc4c(cc3OC(NNC(N)=O)C2C)OCO4)cc1 (stereo unspecified),·,2.1%,?,·
CC(=O)C1=C(C)NC(SCC(=O)c2ccccc2)=C(C#N)C1c1ccco1 (stereo unspecified),-13.5%,·,·,-1.2
O=C(Nc1ccc(F)cc1)N(Cc1nnc2n1CCCCC2)c1ccccc1,-3.2%,-1.4%,-11.7%,1.7
CC(=O)c1ccc(NC(=O)Cn2cnc(S(=O)(=O)N3CCOCC3)c2)cc1,0.2%,4.1%,-20.9%,·
CN1CCN(Cc2cc(Cl)c3cccnc3c2OC(=O)c2cccs2)CC1,26.7%,-4.7%,0.5%,-2.5
COc1ccc2nc(N(CCN(C)C)C(=O)c3ccc4c(c3)OCCO4)sc2c1,-6.9%,2.3%,12.2%,·
COc1ccccc1-c1oc2ccccc2c1C#CCCO,·,-1.6%,-5.8%,·
O=C1CCC(=O)N1OCCOc1ccccc1,-1.7%,1.3%,-0.4%,-4.2
CC1CCCC(NC(=O)CSc2nnc(N)s2)C1C (stereo unspecified),-1.0%,-1.5%,11.1%,-15.6
COc1ccc(CN2C[C@H](C)[C@@H](CC(=O)NCc3ccccc3)C2=O)cc1,-0.9%,-2.9%,16.5%,·
CCOCCCNCc1ccc(OCC(=O)N2CCOCC2)c(OC)c1,0.6%,0.4%,2.6%,7.7
O=C(CN1C(=O)NC2(CCCC2)C1=O)Nc1ccccc1C(F)(F)F,0.4%,-1.5%,0.6%,·
Cc1ccc(NC(=S)N2CCN(c3ncccn3)CC2)cc1C,-9.6%,-2.3%,12.9%,5.8
O=C(Nc1cccc(-c2cccc(F)c2)c1)C1CCN(Cc2ccco2)CC1,13.1%,0.5%,0.1%,·
Cc1cccc(NC(=O)Nc2ccc(S(N)(=O)=O)cc2)c1,-4.3%,2.4%,-4.2%,-2.5
CCc1ccc[n+](-c2[nH]c(=O)sc2/C=N/N=C(\N)[O-])c1,0.9%,-1.1%,1.1%,-5.1
COc1ccc(NC(=O)c2ccc(NC(=O)c3nc4nc(C)cc(C)n4n3)cc2)cc1,·,-0.6%,5.1%,·
COc1ccc(C2C(C(=O)OCC3CCCO3)=C(C)NC3=C2C(=O)CC(c2ccco2)C3)cc1O (stereo unspecified),-8.7%,-3.9%,-15.3%,0.6
Cn1c(=O)c2c(nc(Cc3ccc(N)cc3)n2C)n(C)c1=O,4.9%,-3.0%,6.2%,-0.8
Cc1nc(CN2CCN(S(=O)(=O)c3c(Cl)cc(Br)cc3Cl)CC2)cs1,·,-0.1%,0.4%,·
CCOc1ccc(NC(=O)c2ccc(CC)s2)c([N+](=O)[O-])c1,-37.4%,4.1%,1.2%,8.5
CCC(C(=O)c1ccccc1)P(=O)(NN)c1ccccc1 (stereo unspecified),-1.8%,0.0%,-15.9%,-1.4
O=C(Oc1oc(-c2ccco2)nc1C=Nc1ccccc1)c1ccco1,-24.1%,5.7%,-16.9%,-5.7
CCCCOc1ccc(C2=NNC(=O)CC2)cc1,-52.6%,0.3%,2.6%,-5.1
CCC1Oc2ccccc2N(CC(=O)NCCN2CCCC2)C1=O (stereo unspecified),-4.1%,-2.4%,-4.7%,·
O=C(NCc1cccc(C(F)(F)F)c1)c1cc(-c2ccccc2)nn1CC1CC(c2cccnc2)=NO1 (stereo unspecified),·,2.8%,-3.8%,·
COc1cc(S(=O)(=O)Nc2ccc(C)cc2)ccc1N=Cc1c(C)[nH]n(-c2ccccc2)c1=O,-8.0%,?,10.1%,3.6
CCCCCCC(=O)Nc1nc(C)c(-c2csc(Nc3ccccc3OC)n2)s1,7.9%,0.0%,13.0%,0.2
CCOc1ccc(CN(C)C(=O)CNC(=O)C2CCCCC2)cc1OC,-3.6%,-1.1%,31.2%,·

# High-throughput results from PubChem.

# Only part of the results is shown; count on the stated rates, not on these rows.
